Bioassay records as filed in PubChem BioAssay.
TRPML1 ag: activates the human TRPML1 channel; 410,000 compounds, 0.12% hits; activation, % (concentration not given with the values); TRPML1-expressing cells, Ca2+ dye fluorescence, FDSS; host cell line not named in the record; reference of the full effect not given here; in the data active = activation above about 50%; inconclusive = about 30% to 50%; inactive = below about 30%; also: 0% is about no effect; the text of the record puts the active cut at 80%
Target sequence (Q9GZU1 whole entry, looked up): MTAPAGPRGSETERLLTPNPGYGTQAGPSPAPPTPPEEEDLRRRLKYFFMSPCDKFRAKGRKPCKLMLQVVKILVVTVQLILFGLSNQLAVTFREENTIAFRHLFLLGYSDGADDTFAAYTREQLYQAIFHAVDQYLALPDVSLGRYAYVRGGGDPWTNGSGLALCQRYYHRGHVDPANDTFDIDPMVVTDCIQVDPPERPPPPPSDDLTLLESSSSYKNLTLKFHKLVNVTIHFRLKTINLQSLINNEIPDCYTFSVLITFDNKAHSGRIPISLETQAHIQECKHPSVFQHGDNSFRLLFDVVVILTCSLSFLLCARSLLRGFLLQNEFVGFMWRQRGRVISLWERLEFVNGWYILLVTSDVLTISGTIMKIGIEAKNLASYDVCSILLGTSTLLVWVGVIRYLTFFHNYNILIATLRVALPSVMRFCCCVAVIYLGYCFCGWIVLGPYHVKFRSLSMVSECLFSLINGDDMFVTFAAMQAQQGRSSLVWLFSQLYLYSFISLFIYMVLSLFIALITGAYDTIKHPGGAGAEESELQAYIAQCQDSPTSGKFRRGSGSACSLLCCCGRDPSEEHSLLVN
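Cells: TRPML1-DL, 1X Tet inducer, ~16 h at 37 degrees C/5% CO2. Dye: ABD Ca8 no-wash + quencher, 45-90 min RT. Read: 10 s baseline, compound add, 110 s agonist phase; 54-4 EC80 (4uM final), 110 s antagonist phase.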
CtBP-E1A blk: CtBP/E1A binding inhibition; AlphaScreen GST-E1A/His-CtBP binding, 1536-well; stronger effect = lower value; control for the full effect not named in the record; activity change, % (no concentration beside the values); 340,000 compounds, 0.49% hits; AID 651724; in the data active means activity change below about -65%; inconclusive means about -30% to -65%; inactive means above about -30%; also: % is scaled to controls: 0 for no effect and ±100 for the full control effect
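AlphaScreen with 125 nM GST-E1A and 125 nM His-CtBP (5X stocks) in Tris pH 8.0, 300 mM NaCl, BSA, Tween 20, TCEP. Compounds preincubated 2 h at 37 deg C, then glutathione donor/nickel acceptor beads added for 1 h at 37 deg C in dark.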
TRPML1 inh: inhibitors of human TRPML1 channel; Q9GZU1; TRPML1-inducible cells, Ca2+ dye fluorescence, FDSS; stronger effect = lower value; inhibition of EC80 agonist-evoked calcium signal; activity change, negative = inhibition, % (test concentration not listed); 390,000 compounds, 0.02% hits; AID 624415; in the data active means activity change below about -50%; inconclusive means about -30% to -50%; inactive means above about -30%;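 also: stimulus is agonist 54-4 at its EC80 concentration; % is scaled to controls: 0 for no effect and ±100 for the full control effect; compound concentration not given in the record; the text of the record puts the active cut at -80%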
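TRPML1-DL cells, Tet-induced overnight (~16 h, 37 °C) at 1,500 cells/well, were loaded with Ca8 no-wash dye plus quencher for 45-90 min at room temperature. Compounds were pinned during FDSS kinetic reading; agonist 54-4 at EC80 (4 uM final) then added.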
Six1-Eya2 inh: Six1/Eya2 interaction inhibition; Q15475+O00167; activity change, % (no concentration beside the values); 360,000 compounds, 0.56% hits; AlphaScreen GST-Six1/His-Eya2 binding, biochemical; stronger effect = lower value; control for the full effect not named in the record; in the data active = activity change below about -65%; inconclusive = about -30% to -65%; inactive = above about -30%; also: % is scaled to controls: 0 for no effect and ±100 for the full control effect
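Compounds are tested against tagged Six1 and Eya2 proteins bridged by glutathione donor and nickel acceptor beads; after a one-hour incubation at 37 °C without light, AlphaScreen emission is recorded.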
TRPV1 potentiator: human TRPV1 potentiation; Q8NER1; TRPV1-expressing cells, Fluo-8 calcium influx, capsaicin EC20 potentiation; host cell line not named in the record; control for the full effect not named in the record; potentiation, % at 8.33 µM; 320,000 compounds, 0.02% hits; active means potentiation above 80%; inconclusive means 30% to 80%; inactive means below 30%; also: 0% is about no effect
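Cells expressing TRPV1 were dye-loaded with Fluo-8 and read kinetically: 10 s baseline, 3 min after compound (agonist portion), then 2 min after EC20 capsaicin (allosteric enhancer portion). Calcium-bound dye fluorescence at 480/520 nm.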
D2 PAM: potentiates the human D2 dopamine receptor allosterically | DiscoveRx D2 beta-arrestin cells, luminescence, 90 min; 100% = 57 uM dopamine signal | P14416 | 360,000 compounds, 0.23% hits | potentiation, % (concentration not given with the values); active = potentiation of 50% or more; inconclusive = 30% to 50%; inactive = 30% or less;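 also: tested on top of an EC20 dose of dopamine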
Target sequence (P14416 whole entry, looked up): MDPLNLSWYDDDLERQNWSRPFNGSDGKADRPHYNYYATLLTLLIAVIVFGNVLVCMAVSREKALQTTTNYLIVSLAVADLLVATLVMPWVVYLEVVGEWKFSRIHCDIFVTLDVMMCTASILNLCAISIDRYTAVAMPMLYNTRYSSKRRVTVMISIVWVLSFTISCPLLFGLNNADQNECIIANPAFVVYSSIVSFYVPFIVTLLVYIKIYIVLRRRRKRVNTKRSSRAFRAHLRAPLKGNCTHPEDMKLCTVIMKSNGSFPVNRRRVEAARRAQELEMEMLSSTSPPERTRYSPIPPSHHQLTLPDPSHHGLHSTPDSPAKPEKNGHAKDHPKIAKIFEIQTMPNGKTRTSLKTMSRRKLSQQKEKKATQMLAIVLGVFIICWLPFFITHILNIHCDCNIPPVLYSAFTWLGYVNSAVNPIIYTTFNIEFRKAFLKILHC
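PathHunter beta-arrestin assay in DiscoveRx D2 cells. Compounds were added with an EC20 of dopamine (50 nM final) for 90 min at 37 deg C. Luminescence was read 1 h after detection reagent, with 57 uM dopamine as the EC100 control.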
The depositor's hits bear a star; ? = inconclusive; · = no result given; & = joins results of further samples.

SMILES	TRPML1 ag	CtBP-E1A blk	TRPML1 inh	Six1-Eya2 inh	TRPV1 potentiator	D2 PAM
CCOC(=O)c1ccc(N2C(=O)CC(Nc3ccc(CCO)cc3)C2=O)cc1 (stereo not drawn)	-0.1	14	1	12	9	-5
COc1ccc(NC(=O)CSc2nnc(NC(=O)c3ccco3)s2)cc1OC	1.1	-15	10	-8	7	-19
CC1(C(=O)Nc2ccc(Cl)c(Cl)c2)CCN1C(=O)CCC1CCCC1 (stereo not drawn)	2.0	22	·	15	·	-15
O=C1CC(c2ccco2)Cc2c1cnn2-c1nc2ccccc2s1 (stereo not drawn)	-0.5	·	-5	-1	2	1
CN(CC(=O)NCc1ccc(F)cc1)Cc1cccc(Cl)c1	0.4	-2	1	6	4	-8
COc1ccc(C2CC(c3cccc([N+](=O)[O-])c3)=NN2/C(C)=C/C(C)=O)cc1 (stereo not drawn)	-0.3	-1	-7	16	·	-11
COc1ccc(CC(=O)Nc2ccc(C(=O)Nc3ccccc3C(=O)O)cc2)cc1OC	1.4	-67*	6	-76*	-3	8
O=C(O)CC(NC(=O)C1c2ccccc2Oc2ccccc21)c1ccc(Cl)cc1 (stereo not drawn)	-0.5	3	-11	1	4	-1
COc1ccc(CCNC(=O)C2CCC(CNS(=O)(=O)c3ccc(F)cc3)CC2)cc1OC (stereo not drawn)	-0.4	12	2	-7	12	-2
O=C(Nc1ccc(N2C(=O)C3C4C=CC(C4)C3C2=O)cc1)Nc1cccnc1 (stereo not drawn)	0.0	0	3	-6	12	-9
CCOC(=O)c1cc(-c2ccccc2C)n(CC2CC(c3ccc(OC)cc3)=NO2)n1 (stereo not drawn)	2.1	-2	15	-2	·	5
Cc1cccc(N2CCN(C(=O)C(Cc3ccccc3)n3cccc3)CC2)c1C (stereo not drawn)	0.9	-12	85	-13	29	-7
Cn1cnnc1SCC(=O)c1cc2ccccc2oc1=O	0.7	-16	-8	-29	22	0
O=C(NCc1cccnc1)c1cccs1	-1.0	1	0	-2	-8	-6
O=C(NCCC(=O)N1CCCC1)c1ccccc1Cl	-0.4	1	0	2	-4	-7

Rewritten with each value named: 4 of the compounds above.
COc1ccc(CCNC(=O)C2CCC(CNS(=O)(=O)c3ccc(F)cc3)CC2)cc1OC (stereo not drawn)
  TRPML1 ag = -0.4
  CtBP-E1A blk = 12
  TRPML1 inh = 2
  Six1-Eya2 inh = -7
  TRPV1 potentiator = 12
  D2 PAM = -2
CC1(C(=O)Nc2ccc(Cl)c(Cl)c2)CCN1C(=O)CCC1CCCC1 (stereo not drawn)
  TRPML1 ag = 2.0
  CtBP-E1A blk = 22
  TRPML1 inh = ·
  Six1-Eya2 inh = 15
  TRPV1 potentiator = ·
  D2 PAM = -15
Cc1cccc(N2CCN(C(=O)C(Cc3ccccc3)n3cccc3)CC2)c1C (stereo not drawn)
  TRPML1 ag = 0.9
  CtBP-E1A blk = -12
  TRPML1 inh = 85
  Six1-Eya2 inh = -13
  TRPV1 potentiator = 29
  D2 PAM = -7
O=C(NCc1cccnc1)c1cccs1
  TRPML1 ag = -1.0
  CtBP-E1A blk = 1
  TRPML1 inh = 0
  Six1-Eya2 inh = -2
  TRPV1 potentiator = -8
  D2 PAM = -6

Next structures follow.
SMILES	TRPML1 ag	CtBP-E1A blk	TRPML1 inh	Six1-Eya2 inh	TRPV1 potentiator	D2 PAM
CN(Cc1cccc(F)c1)C(=O)c1ccc2c(=O)n3c(nc2c1)CCC3	-0.2	5	30	0	7	9
C#CCN1C=CC(=O)[C@@H](O)[C@H]1c1ccccc1Br	0.8	0	-13	6	·	-4
CC(C)(C)OC(=O)C[C@H]1C/C=C\C[C@H](CC(=O)N(CCO)Cc2ccccc2)C(=O)N2CCC[C@H]2COC1=O	-0.4	3	-1	3	·	-2
CCOC(=O)c1[nH]c(C)c(C(=O)c2ccc(C)cc2)c1C	1.7	-10	1	-9	0	-8
Cc1ccc(-c2cc(C(F)F)nc3sc4c(=O)[nH]cnc4c23)cc1	0.4	0	0	-1	8	-2
COc1cccc(/C=N/n2cnc3cc(C)c(C)cc32)c1OC	0.7	6	12	6	-24	-12
Cn1c(=O)c2c(nc(N3CCOCC3)n2CCNC2=NCCC2)n(C)c1=O	-0.7	1	35	-1	·	1
C/C(=N\OC(=O)c1ccc(OC(C)C)cc1)c1ccc(C)c(C)c1	1.1	20	0	2	2	8
Cc1cccc(N2CCN(C(=O)c3cccc(S(=O)(=O)N4CCOCC4)c3)CC2)c1C	0.2	0	24	2	-3	1
CC1CCN(C(=O)C2CCN(c3ncnc4c3nc3n4CCCCC3)CC2)CC1	-0.9	·	1	-8	-17	-12
Cn1c(=O)c2sccc2n2c(CCCC(=O)Nc3ccc(F)cc3F)nnc12	-0.4&1.8	-18	0&1	-25	5	-11
Cc1ccc(OCC(=O)Nc2ccccc2-c2ccccc2)cc1	3.2	-1	25	18	7	-7
CC(NC(=O)c1ccccc1F)c1nnc(SCC(=O)NC2CCCCC2)n1C (stereo not drawn)	-0.4	4	39	1	7	-3
O=C(CSc1nccn1-c1ccccc1)NCc1ccc2c(c1)OCO2	2.1	-1	6	-18	-18	6
CC(C(=O)N1CCN(c2ccccc2)CC1)c1ccc([N+](=O)[O-])cc1 (stereo not drawn)	·	·	·	12	5	-14
O=c1nc(SCc2c(F)cccc2Cl)nc(-c2ccccc2)[nH]1	0.2	9	-4	-4	10	-2
CCOc1cc(C(=O)OC(C)C(=O)Nc2ccccc2OC)ccc1OCC(=O)N1CCOCC1 (stereo not drawn)	-0.3	·	1	4	·	2
COc1cccc(-n2c(Cc3cc(=O)[nH]c(=O)[nH]3)nnc2SCC(=O)Nc2ccccc2)c1	0.2	5	5	1	·	-6
O=C1NC2=C(C(=O)CCC2)C(c2ccc(OC(F)F)cc2)N1 (stereo not drawn)	1.0	-17	19	-8	-1	-3
CC(=O)c1c(C)[nH]c(C(=O)Nc2ccc(C)c(C)c2)c1C	2.0	-9	-7	-12	-9	-24
Oc1ccc(N2CCN(C(c3cccs3)c3nnnn3CCc3ccccc3)CC2)cc1 (stereo not drawn)	-0.7	-11	25	-27	-10	?
COc1ccccc1CNC(=O)CN(CCc1ccccc1)S(C)(=O)=O	-0.1	-3	-13	8	-3	-4
COc1cc2c3c(c1)C(C)=CC(C)(C)N3C(=O)C2=O	1.4	1	6	-6	-4	-12
COc1ccccc1CCN1C(=S)NC(C)(C)CC1(C)O (stereo not drawn)	1.9	-4	8	-11	-2	-4
CCOCCc1nnc(N)s1	0.8	3	9	6	4	-6
COc1cccc(C(=O)Nc2ccc(NC(=O)c3ccco3)cn2)c1	0.1	6	40	11	1	-16
Cc1ccccc1CN(C)c1ccc(S(=O)(=O)N2CCN(C)CC2)cn1	-0.9	·	-2	-2	-7	-8
CC(C)CC(=O)Nc1ccc(N2CCN(S(C)(=O)=O)CC2)cc1	0.3	13	-14	2	6	-7
CN(C)C(=S)Nc1cccc(C(F)(F)F)c1	0.7	-3	3	3	1	-8
Cc1cc(CN2CCOCC2)c(O)c(C2(C)CCCCC2)c1	0.7	-3	30	-9	-7	-21
CN(C)c1ncccc1-c1nc2ccccc2s1	-0.6	-4	2	21	2	-7
CN(Cc1ccsc1)C(=O)Cn1cc(Br)ccc1=O	0.1	-20	-5	-4	-13	-5
CC(O)[C@H]1CNC(=O)C(=O)N1CC(C)(C)C (stereo partly drawn)	0.0	·	28	-3	-15	-3
O=C1CCC(c2ccc3ccccc3c2)O1 (stereo not drawn)	-0.7	5	-3	7	·	-1
O=C(c1ccc(OCC2CCCO2)cc1)N1CCc2ccccc2C1 (stereo not drawn)	0.2	-1	34	7	-3	1
FC(F)(F)c1nnc2c3ccccc3c(Cl)nn12	·	·	·	6	-6	-11
Cc1ccccc1OCC(=O)NN1CCN(C)CC1	0.2	1	-25	0	1	4
CN(C)CC#CCC(O)(c1ccccc1)c1ccccc1	0.7	0	-7	1	8	-12
CCOc1cc(/C=N/NC(N)=O)ccc1OCC(=O)Nc1ccc(C)c(C)c1	0.3	5	0	-7	-8	1
O=C(NCc1ccc2c(c1)OCO2)c1ccc(NC(=O)C2CCCO2)cc1 (stereo not drawn)	1.3	-12	-2	-9	-3	-5
C[C@H](NC(=O)Nc1cccc(Br)c1)C(=O)O	0.6	5	-4	-5	-13	-2
COc1ccc(OCC(=O)Nc2cc(S(=O)(=O)N3CCCC3)ccc2Cl)cc1	0.4	6	-7	10	-4	-16
CCN(CC)S(=O)(=O)c1cccc(C(=O)N/N=C/c2ccc(N3CCOCC3)cc2)c1	-0.5	4	-3	-4	-39	5
Cc1[nH]c2ccccc2c1CCNC(=O)c1ccc2c(c1[N+](=O)[O-])C(=O)c1ccccc1C2=O	0.7	11	18	-73*	6	93*
CCOC(=O)c1nc(-c2ccccc2)oc1N(C)C	0.7	-7	-2	-10	0	-8
CC(C)CCNC(=S)Nc1ccc2nc3n(c(=O)c2c1)CCCCC3	2.8	8	22	-8	-14	-6
CCCCNC(=O)NNC(=O)c1cc(C)on1	-0.6	2	11	6	-1	3
CC(C)Oc1cccc(C(=O)C2CCCN(Cc3cccn3-c3ccccn3)C2)c1 (stereo not drawn)	-0.8	-12	1	-14	7	-20
CC(C)COC(=O)NCCOC(=O)Nc1cccc(Cl)c1	5.3	-1	-9	1	0	-17
COc1ccc(NC(=O)c2ccc3ccccc3n2)cc1S(=O)(=O)N1CCCCC1	-0.4	-16	54	?	7	-6
CCC(=O)c1cc(F)c(N2CCN(S(=O)(=O)c3ccccc3)CC2)cc1C	0.0	2	-5	-5	7	-5
COc1ccc(CNC(=O)CNC(=O)c2sc3ccccc3c2Cl)cc1OC	0.1	-2	-11	7	-3	-10
O=C(/C=C/c1ccc(OCc2c(F)cccc2Cl)cc1)N1CCOCC1	0.8	-2	42	-1	0	1
Cc1nc(N2CCC(C(N)=O)CC2)c2c(-c3cccs3)csc2n1	-0.2	6	2	-2	-7	10
Cc1cc2cc(CNC(=O)c3ccc(C)c([N+](=O)[O-])c3)ccc2[nH]1	1.4	-10	4	23	-9	-10
CC1([N+](=O)[O-])COC2(OC1)C(=O)Nc1ccccc12 (stereo not drawn)	1.6	-4	-13	0	25	1
O=C(NC1CCCCC1)c1cc2cc(Br)ccc2o1	2.1	9	10	8	-18	-9
c1ccc2c(c1)c1ccccc1n1c(-c3ccc4c(c3)OCO4)nnc21	-0.3	7	-10	2	7	-2
CN(C)CCCNC(=O)c1ccc(Oc2ccccc2)cc1	0.6	-14	2	3	2	-13
COc1ccc(Cn2ccnc2SCC(=O)NC2CCCC2)cc1	0.0&-0.6	-5	10&-7	1	-10	-13

The list goes on:
SMILES	TRPML1 ag	CtBP-E1A blk	TRPML1 inh	Six1-Eya2 inh	TRPV1 potentiator	D2 PAM
CC(C)(C)NC(=O)C(=O)NNC(=O)COc1ccccc1	-0.4	7	-8	18	3	-9
COc1ccc(SC[C@H](Cc2ccccc2)N2CC[C@@H](NC(=O)OCc3ccccc3)CCC2=O)cc1	1.8&0.1	-5	53	-10	-5	-2
CCC(C)c1ccccc1OCCCN(C)Cc1ccccc1 (stereo not drawn)	-1.4	3	6	5	7	-22
CN(CC(=O)O)S(=O)(=O)c1ccc2c(c1)n(C)c(=O)c(=O)n2C	-0.5	0	6	-5	-7	11
CN(C)S(=O)(=O)c1cccc(NC(=S)Nc2cc(Cl)cc(Cl)c2)c1	-0.4	3	8	0	4	-35
